AF4-AF9 inh: MLL-AF4/AF9 protein interaction inhibition; AlphaScreen, biotin-AF4 peptide binding to FLAG-AF9; inhibition, % at 10 µM; 350,000 compounds, 0.47% hits; AID 651704;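 active means every replicate reaching a set inhibition limit, whatever the replicate mean, cut at about 25% in these data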;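 further: 0% = plate neutral control median and 100% = total signal loss; the record names both 10 and 1 µM as test concentration; the first replicate is given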
Target sequence (P42568 whole entry, looked up): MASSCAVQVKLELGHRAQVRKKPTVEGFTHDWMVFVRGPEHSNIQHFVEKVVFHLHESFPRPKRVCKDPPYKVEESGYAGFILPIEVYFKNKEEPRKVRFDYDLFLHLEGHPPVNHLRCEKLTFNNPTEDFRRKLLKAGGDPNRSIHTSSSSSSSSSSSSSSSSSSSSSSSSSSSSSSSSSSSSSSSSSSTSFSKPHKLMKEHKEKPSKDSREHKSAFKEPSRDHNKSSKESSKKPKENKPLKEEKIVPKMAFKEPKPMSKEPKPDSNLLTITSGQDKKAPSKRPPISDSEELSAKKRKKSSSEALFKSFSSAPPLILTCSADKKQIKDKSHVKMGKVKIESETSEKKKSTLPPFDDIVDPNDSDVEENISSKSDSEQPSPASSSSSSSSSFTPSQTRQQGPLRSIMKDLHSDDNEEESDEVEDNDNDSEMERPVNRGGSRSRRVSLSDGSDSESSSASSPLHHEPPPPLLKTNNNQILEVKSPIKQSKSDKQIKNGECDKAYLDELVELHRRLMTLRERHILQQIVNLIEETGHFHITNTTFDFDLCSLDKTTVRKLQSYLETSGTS
rRNA inh HTS: selective bacterial rRNA inhibition in E. coli | E. coli WT GFP vs humanized-ribosome RFP mutants, fluorescence, 24 h; hits give low values; DMSO median 0, no signal -100 | GFP signal change (wild-type ribosome), % (concentration not given with the values) | 350,000 compounds, 1.6% hits | AID 720706;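 active means significant combined selectivity score with lowered wild-type GFP, culture density cut under 30%, mutant RFP and density less affected; inactive means any of these conditions unmet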; further: one replicate is shown; some compounds called inactive have numbers as strong as hits
rRNA inh HTS OD600: further read-out of rRNA inh HTS, marked with its call; OD600 change, %; measured here: OD600 growth;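 optical density of the mix in the first replicate; 0 = DMSO median and -100 = no signal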
rRNA inh HTS RFP: also measured in rRNA inh HTS; calls as there; RFP signal change, %; measured here: RFP humanized mutant strains;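 first replicate; 0 = DMSO median and -100 = no signal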
Numbers without * were called inactive.

AF4-AF9 inh,rRNA inh HTS,compound,rRNA inh HTS OD600,rRNA inh HTS RFP
-0.6,-3.3,C[C@@H]1CN([C@H](C)CO)C(=O)c2cccc(NC(=O)C3CCOCC3)c2O[C@H]1CN(C)C(=O)Nc1ccc(C(F)(F)F)cc1,-0.4,-1.6
0.0,1.2,N#C[C@H]1[C@H](c2ccccc2C2=CCCCC2)[C@H](CO)N1C(=O)CN1CCOCC1,7.7,3.7
-4.6,0.8,C[C@@H]1CN([C@@H](C)CO)S(=O)(=O)c2ccc(C#C[C@@H](C)O)cc2O[C@@H]1CN(C)C(=O)C1CC1,-3.7,-0.9
7.0,7.6,Nc1ncnc2c1nc(-c1ccccc1)n2C1OC(CO)C(O)C1O (configuration not stated),-19.0,-4.2
0.3,-2.4,O=C(C[C@H]1C=C[C@H](NS(=O)(=O)c2ccccc2)[C@H](CO)O1)N1CCC(Cc2ccccc2)CC1,-11.0,0.9
-2.5,1.1,O=C(NC1CCC1)[C@@H]1[C@@H](CO)[C@@H]2Cn3c(ccc(-c4cccc(F)c4)c3=O)[C@H]1N2Cc1cocn1,2.6,0.0
3.9,7.4,C[C@@H]1CN([C@H](C)CO)C(=O)c2cc(NS(=O)(=O)c3cccs3)ccc2O[C@@H]1CN(C)Cc1ccc(Oc2ccccc2)cc1,-18.4,13.9
-0.1,0.8,COc1ccc(CN(C)C[C@H]2Oc3c(NS(=O)(=O)c4ccccc4)cccc3C(=O)N([C@@H](C)CO)C[C@@H]2C)cc1,3.2,-2.0
0.1,10.9,CSc1ccccc1C(=O)OCC(=O)Nc1c(C)n(C)n(-c2ccccc2)c1=O,14.0,3.3
0.1,-2.6,C[C@H](CO)N1C[C@H](C)[C@H](CN(C)C(=O)Nc2ccccc2)Oc2c(NC(=O)NC3CCCCC3)cccc2C1=O,-3.9,-1.4
-0.8,-4.1,C[C@@H]1CCCCO[C@@H](CN(C)C(=O)Nc2cccc3ccccc23)[C@H](C)CN([C@@H](C)CO)C(=O)c2cc(NC(=O)c3ccccc3)ccc2O1,-3.6,-3.8
0.0,5.5,CO[C@@H](CN(C)Cc1ccc2c(c1)OCO2)[C@H](C)CN(C(=O)c1ccccc1)[C@H](C)CO,4.9,2.0
5.0,-31.0*,CC1(C(=O)NS(=O)(=O)c2ccc(Cl)s2)CCN1C(=O)C1(c2ccccc2)CCCC1 (configuration not stated),-21.4*,4.4*
-5.8,2.9,CCC(=O)N1CC(=O)N2[C@H](CO)[C@H](c3ccc(-c4cccnc4)cc3)[C@@H]2C1,5.1,1.7
-12.1,1.9,Cc1noc(C)c1NC(=O)Nc1ccc2c(c1)CC(=O)N([C@H](C)CO)C[C@@H](C)[C@H](CN(C)CC1CC1)O2,10.8,-1.3
-3.3,3.9,C[C@@H]1CN([C@@H](C)CO)C(=O)c2cc(C3=CCCC3)cnc2O[C@H]1CN(C)Cc1ccccc1C(=O)O,-4.1,-3.7
1.2,1.3,O=C1NC[C@@H](CCCCN2CCN(CCc3ccccc3)C(=O)C2=O)N(CCc2ccc(O)cc2)C1=O,13.4,-3.0
-3.1,-7.4,Cc1ccsc1C(=O)N1CCC1(C)C(=O)NS(=O)(=O)c1ccc(Br)cc1 (configuration not stated),9.4,-2.4
-2.5,6.3,C[C@H](O)C#Cc1cnc2c(c1)C(=O)N([C@H](C)CO)C[C@@H](C)[C@H](CN(C)C(=O)Nc1ccc(F)cc1)O2,11.0,-6.0
1.6,-2.8,COc1ccc(NC(=O)N[C@H]2CC[C@H](CCn3cc(-c4ccccc4F)nn3)O[C@@H]2CO)cc1,-10.0,-0.8
-23.9,0.9,Cc1cccc(S(=O)(=O)N2C[C@H](O)COC[C@H]3O[C@H](CC(=O)N4CCN(C)CC4)CC[C@@H]32)c1,0.5,-4.6
7.0,0.3,Cc1ccc(OC(=O)N(C)C[C@@H]2OCc3ccccc3-c3ccccc3C(=O)N([C@H](C)CO)C[C@H]2C)cc1,4.6,0.5
4.4,-2.9,COc1cccc(-c2cnc3c(c2)C(=O)N([C@@H](C)CO)C[C@H](C)[C@@H](CN(C)Cc2ccccc2)O3)c1,-5.3,3.6
1.2,-2.8,CCCCN(C=O)c1c(CC)nc2ccc(C(=O)NCc3ccc4c(c3)OCO4)cn12,-5.5,-1.1
-2.1,-1.2,O=C(Nc1ccc2c(c1)[C@H]1C[C@H](CC(=O)N3CCOCC3)O[C@H](CO)[C@H]1O2)c1cccnc1,6.7,-5.3
-2.7,-0.3,O=C(C[C@H]1CC[C@@H](NC(=O)Nc2ccccc2F)[C@@H](CO)O1)NCc1ccc(F)cc1,3.3,-0.5
0.9,3.7,C[C@H]1CN([C@@H](C)CO)C(=O)c2cccc(NC(=O)Nc3cccc4ccccc34)c2O[C@@H]1CN(C)C(=O)Nc1cccc2ccccc12,5.7,0.6
1.2,1.0,C[C@@H]1CN([C@@H](C)CO)C(=O)c2cc(NC(=O)Nc3ccc4c(c3)OCO4)ccc2O[C@@H](C)CCCCO[C@@H]1CN(C)C(=O)NC1CCCCC1,3.9,-3.9
-2.7,-0.6,CCC(=O)N1C[C@H](C)[C@H](OC)CN(C)C(=O)c2cc(NS(=O)(=O)CC)ccc2OC[C@H]1C,2.5,-3.1
-2.6,-0.4,CO[C@@H]1CN(C)C(=O)c2cc(NC(=O)Nc3c(C)noc3C)ccc2OC[C@@H](C)NC[C@@H]1C,3.2,0.0
1.5,-1.1,O=C(C[C@H]1CC[C@H](NC(=O)C2CCOCC2)[C@@H](CO)O1)NCc1ccccc1Cl,2.5,-0.4
-1.2,8.6,O=C(Cc1ccc(NC(=O)C2CCCN(C(=O)c3ccccc3)C2)cc1)Nc1cccc(C(=O)N2CCCC2)c1 (configuration not stated),-2.5,-1.6
-0.7,6.8,CC(=O)N1[C@@H]2c3ccc(-c4cccc(F)c4)c(=O)n3C[C@@H]2[C@@H](CO)[C@@H]1C(=O)NCCCN(C)C,8.3,2.1
0.0,-0.8,CC1(C(=O)Nc2ccc3c(c2)OCO3)Cc2c(-c3cccc(C(F)(F)F)c3)ccnc2O1 (configuration not stated),-23.4,-1.1
-0.5,0.4,Cc1noc(C)c1S(=O)(=O)Nc1ccc2c(c1)C(=O)N([C@@H](C)CO)C[C@@H](C)[C@@H](CN(C)C(=O)Nc1cccc3ccccc13)O2,-6.5,0.5
5.4,-0.9,COc1ccc(CN(C)C[C@@H]2Oc3c(NC(=O)Nc4ccc(C(F)(F)F)cc4)cccc3C(=O)N([C@@H](C)CO)C[C@@H]2C)cc1,-5.7,-1.4
-3.3,-0.8,COc1cccc(C(=O)Nc2ccc3c(c2)OC[C@@H](C)NC[C@@H](C)[C@H](OC)CN(C)C3=O)c1,-3.8,-1.1
0.4,2.3,CCC(=O)N(C)C[C@H]1Oc2cc(-c3ccncc3)ccc2S(=O)(=O)N([C@@H](C)CO)C[C@@H]1C,1.5,2.7
-11.4,-2.0,C[C@H](CO)N1C[C@H](C)[C@@H](CN(C)S(=O)(=O)c2ccc(F)cc2)Oc2ccc(NC(=O)Nc3ccccc3)cc2CC1=O,-7.4,3.4
0.1,-6.4,Cc1cc(C)c(C)c(S(=O)(=O)N2CCC(C(=O)N3CCN(c4ccc(F)cc4)CC3)CC2)c1C,-14.6,8.5
-1.6,0.1,COC(=O)[C@@H]1[C@@H](CO)[C@@H]2Cn3c(ccc(C4=CCCCC4)c3=O)[C@@H]2N1C(=O)C1CC1,-1.4,1.0
9.1,11.2,C[C@@H]1CN([C@H](C)CO)C(=O)c2cccc(NC(=O)Nc3ccc4c(c3)OCO4)c2O[C@@H]1CN(C)S(=O)(=O)c1ccc(F)cc1,-2.9,3.0
3.5,1.8,C[C@H](CO)N1C[C@H](C)[C@@H](CN(C)C(=O)c2ccccc2)OCCCC[C@H](C)Oc2ccc(NS(=O)(=O)c3cccs3)cc2C1=O,-0.6,3.1
3.1,3.0,CNC[C@@H]1Oc2ccc(NC(=O)Cc3cn(C)c4ccccc34)cc2CC(=O)N([C@H](C)CO)C[C@@H]1C,-0.9,-0.8
0.1,3.7,O=C(C[C@@H]1C[C@@H]2c3cc(NC(=O)C4CCOCC4)ccc3O[C@@H]2[C@@H](CO)O1)NC1CCCCC1,5.6,0.6
-1.8,1.6,C[C@@H]1CN([C@H](C)CO)C(=O)Cc2cc(NS(=O)(=O)c3ccc(F)cc3)ccc2O[C@H]1CN(C)CC1CC1,2.7,-1.1
-3.0,3.5,O=C(NC[C@@H]1[C@@H](c2ccccc2)[C@@H](CO)N1Cc1cccnc1)C1CCCC1,10.7,-1.8
0.4,-3.0,CN(C)C(=O)c1ccc(-c2ccc3c(c2)[C@@H]2[C@@H](CCN2C(=O)c2ccccc2)[C@H](CO)N3)cc1,5.9,0.8
0.1,0.1,C[C@@H]1CCCCO[C@@H](CN(C)Cc2ccc(Cl)c(Cl)c2)[C@@H](C)CN([C@@H](C)CO)C(=O)c2cc(NC(=O)Nc3ccc(C(F)(F)F)cc3)ccc2O1,9.6,3.9
-2.2,5.8,CNC[C@H]1Oc2ccc(N(C)C)cc2CC(=O)N([C@H](C)CO)C[C@H]1C,9.0,-1.0
-0.4,2.8,COCC(=O)Nc1ccc2c(c1)C(=O)N(C)C[C@H](OC)[C@@H](C)CN(Cc1cccnc1)[C@@H](C)CO2,7.0,-3.2
-8.0,-2.2,COc1ccc(S(=O)(=O)N[C@@H]2C=C[C@@H](CC(=O)NCc3ccccc3F)O[C@@H]2CO)cc1,0.2,-1.8
-3.2,-1.2,COc1ccc(NC(=O)N(C)C[C@@H]2Oc3ccc(NC(=O)CCC(F)(F)F)cc3C(=O)N([C@H](C)CO)C[C@H]2C)cc1,-2.8,-0.4
1.5,-0.6,C[C@@H]1CCCCO[C@@H](CN(C)C(=O)Nc2ccc(C(F)(F)F)cc2)[C@H](C)CN([C@@H](C)CO)C(=O)c2cc(NC(=O)C3CCCCC3)ccc2O1,3.7,-4.1
-0.3,0.0,C[C@@H]1CCCCO[C@@H](CN(C)Cc2ccc(C(=O)O)cc2)[C@H](C)CN([C@@H](C)CO)C(=O)c2cc(NC(=O)Nc3ccc4c(c3)OCO4)ccc2O1,10.0,-1.6
-9.3,3.7,COc1ccc(S(=O)(=O)Nc2ccc3c(c2)C(=O)N([C@H](C)CO)C[C@H](C)[C@H](CN(C)S(C)(=O)=O)O3)cc1,-5.1,-1.2
12.8,-1.1,COCC(=O)N1CCCCN2[C@H](C1)[C@H](c1ccc(C#Cc3cccnc3)cc1)[C@@H]2CO,-6.4,-1.2
-1.9,-1.7,COc1ccccc1S(=O)(=O)N[C@H]1C=C[C@@H](CC(=O)NCc2cccc(F)c2)O[C@H]1CO,-1.7,-1.2
4.3,3.4,O=C(C[C@@H]1C[C@@H]2c3cc(NC(=O)Cc4ccncc4)ccc3O[C@@H]2[C@@H](CO)O1)NCc1cccc(F)c1,-4.8,1.9
0.7,-2.1,C[C@H](CO)N1C[C@H](C)[C@@H](CN(C)C(=O)NC2CCCCC2)OCCCC[C@H](C)Oc2ccc(NC(=O)Cc3ccccc3)cc2C1=O,-3.5,5.8

By substructure: the entries above with a CF3 group.
AF4-AF9 inh,rRNA inh HTS,compound,rRNA inh HTS OD600,rRNA inh HTS RFP
-0.6,-3.3,C[C@@H]1CN([C@H](C)CO)C(=O)c2cccc(NC(=O)C3CCOCC3)c2O[C@H]1CN(C)C(=O)Nc1ccc(C(F)(F)F)cc1,-0.4,-1.6
0.0,-0.8,CC1(C(=O)Nc2ccc3c(c2)OCO3)Cc2c(-c3cccc(C(F)(F)F)c3)ccnc2O1 (configuration not stated),-23.4,-1.1
5.4,-0.9,COc1ccc(CN(C)C[C@@H]2Oc3c(NC(=O)Nc4ccc(C(F)(F)F)cc4)cccc3C(=O)N([C@@H](C)CO)C[C@@H]2C)cc1,-5.7,-1.4
0.1,0.1,C[C@@H]1CCCCO[C@@H](CN(C)Cc2ccc(Cl)c(Cl)c2)[C@@H](C)CN([C@@H](C)CO)C(=O)c2cc(NC(=O)Nc3ccc(C(F)(F)F)cc3)ccc2O1,9.6,3.9
-3.2,-1.2,COc1ccc(NC(=O)N(C)C[C@@H]2Oc3ccc(NC(=O)CCC(F)(F)F)cc3C(=O)N([C@H](C)CO)C[C@H]2C)cc1,-2.8,-0.4
1.5,-0.6,C[C@@H]1CCCCO[C@@H](CN(C)C(=O)Nc2ccc(C(F)(F)F)cc2)[C@H](C)CN([C@@H](C)CO)C(=O)c2cc(NC(=O)C3CCCCC3)ccc2O1,3.7,-4.1

High-throughput results deposited in PubChem BioAssay by Broad Institute.

An excerpt, so the mix of outcomes need not match the whole.
